Assay outcomes: PubChem, several laboratories
Ecoli growth – E. coli growth inhibition | Escherichia coli growth, OD600, 23 h; active compounds read low | OD600 absorbance (concentration not given with the values) | 0.21% of 330,000 active;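 active = OD600 absorbance below the run mean of sample wells minus 3.6 SD, in any replicate, cut at about 0.56 in these data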;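 also: stock transfer was 300 nL into about 60 µL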
FGF22 binding – FGF22 (human) thermal shift binding. calls only at 9.99 µM. recombinant FGF22 thermal shift, SYPRO orange fluorescence; percent of sucrose octasulfate shift, DMSO zero. Q9HCT0. 1.5% of 340,000 active;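 active = melting point raised past a set limit in the mean and every replicate; inconclusive = no clear call; three in four hits are not shown here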
Target sequence (Q9HCT0 whole entry, looked up): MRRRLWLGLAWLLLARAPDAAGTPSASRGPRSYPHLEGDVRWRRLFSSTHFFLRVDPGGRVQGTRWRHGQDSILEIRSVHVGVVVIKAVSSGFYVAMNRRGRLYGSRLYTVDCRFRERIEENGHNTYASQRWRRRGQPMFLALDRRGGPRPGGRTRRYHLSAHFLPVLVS
ALR inh – inhibitors of human sulfhydryl oxidase ALR; P55789; purified ALR, DTT oxidation, H2O2 HRP-luminol luminescence; inhibition, % (test concentration not listed); 3.8% of 290,000 active; AID 485317;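 active = mean and each replicate at 75% or more; inconclusive = only one of the two met; inactive = neither met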;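 also: stock transfer was 7.5 nL into about 7.5 µL; 0% = neutral wells and 100% = wells with inactivated enzyme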
Target sequence (P55789 whole entry, looked up): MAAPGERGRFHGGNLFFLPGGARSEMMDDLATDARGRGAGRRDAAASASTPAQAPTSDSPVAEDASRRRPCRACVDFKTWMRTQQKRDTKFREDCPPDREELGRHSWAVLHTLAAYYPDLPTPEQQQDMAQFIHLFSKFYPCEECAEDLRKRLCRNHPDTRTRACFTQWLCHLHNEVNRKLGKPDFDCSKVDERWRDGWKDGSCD
MLL AF4-AF9 inh – MLL-AF4/AF9 protein interaction inhibition | AlphaScreen, biotin-AF4 peptide binding to FLAG-AF9 | AID 651704 | inhibition, % at 10 µM | 0.47% of 350,000 active | P42568;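 active = every replicate reaching a set inhibition limit, whatever the replicate mean, cut at about 25% in these data; inconclusive = mean inhibition reaches that limit but some replicates miss it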;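 also: 0% = plate neutral control median and 100% = total signal loss; the record names both 10 and 1 µM as test concentration; the first replicate is given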
Target sequence (P42568 whole entry, looked up): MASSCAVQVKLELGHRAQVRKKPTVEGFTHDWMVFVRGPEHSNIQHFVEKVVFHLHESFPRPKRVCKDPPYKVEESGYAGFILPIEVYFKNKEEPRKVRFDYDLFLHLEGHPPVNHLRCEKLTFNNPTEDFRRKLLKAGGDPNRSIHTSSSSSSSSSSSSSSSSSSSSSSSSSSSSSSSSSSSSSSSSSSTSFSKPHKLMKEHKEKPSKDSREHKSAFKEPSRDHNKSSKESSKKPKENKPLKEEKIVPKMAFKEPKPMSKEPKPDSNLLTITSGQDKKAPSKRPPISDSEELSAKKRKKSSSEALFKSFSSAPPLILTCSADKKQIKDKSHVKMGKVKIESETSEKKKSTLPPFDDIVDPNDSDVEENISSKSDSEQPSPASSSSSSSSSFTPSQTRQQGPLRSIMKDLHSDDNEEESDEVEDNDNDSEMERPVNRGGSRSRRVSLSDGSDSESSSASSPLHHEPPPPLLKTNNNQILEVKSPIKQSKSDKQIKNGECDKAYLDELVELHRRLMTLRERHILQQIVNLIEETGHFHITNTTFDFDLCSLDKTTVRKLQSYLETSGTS
Ecoli rRNA inh – selective bacterial rRNA inhibition in E. coli. E. coli WT GFP vs humanized-ribosome RFP mutants, fluorescence, 24 h; active compounds read low; DMSO median 0, no signal -100. GFP signal change (wild-type ribosome), % (concentration not given with the values). 1.6% of 350,000 active;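 active = significant combined selectivity score with lowered wild-type GFP, culture density cut under 30%, mutant RFP and density less affected; inactive = any of these conditions unmet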; also: one replicate is shown; some compounds called inactive have numbers as strong as hits
Vif TR-FRET – inhibitors of Vif binding to APOBEC3G peptide, primary screen, biochemical, TR-FRET, GST-Vif 1-94, biotin-A3G peptide, dose response retest (AID 1117319); inhibition, %, or IC50 in µM where a hit was titrated; TR-FRET GST-Vif / biotin-A3G peptide binding; higher % means a stronger effect; test concentration not given here; strong numbers were not always called active; 0.57% of 260,000 active;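 active = above the screen mean plus three standard deviations and confirmed in dose response; inconclusive = results disagree or hit not tested in dose response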;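 also: Vif residues 1-94 fused to GST binding biotinylated APOBEC3G peptide 110-148; 0% = full assay without inhibitor and 100% = GST in place of GST-Vif; retest series ran down from 100 µM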
HNF4A DNA FP – change in binding of human HNF4 alpha to DNA; P41235; HNF4a-FITC DNA binding, fluorescence polarization, 1 h; AID 1224865; 0.3% of 360,000 active; activity change, % at 10 µM; in the data active = activity change above about 30%, passing the limit was not always enough;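 also: controls were the assay level and a saturating level of protein; the project sought stronger binding though the title names inhibitors; some compounds called inactive have numbers as strong as hits; positive values seem to mean higher polarization but the record does not say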
Ecoli rRNA inh OD600 – also measured in Ecoli rRNA inh; calls as there; OD600 change, %; measured here: OD600 growth;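 optical density of the mix in the first replicate; 0 = DMSO median and -100 = no signal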
Ecoli rRNA inh RFP – recorded beside Ecoli rRNA inh, whose call it bears; RFP signal change, %; measured here: RFP humanized mutant strains;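 first replicate; 0 = DMSO median and -100 = no signal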
An asterisk follows results filed as active; i = inactive; ? = inconclusive; nt = not tested or not shown.

structure | Ecoli growth | FGF22 binding | ALR inh | MLL AF4-AF9 inh | Ecoli rRNA inh | Ecoli rRNA inh OD600 | Ecoli rRNA inh RFP | Vif TR-FRET | HNF4A DNA FP
O=C1CCCCN1CCC(=O)N1CCCC(Nc2ccccc2)C1 (centres undefined) | 0.72 | i | 4 | -3.4 | 9 | -8 | 1.3 | nt | 0.7
Cc1ccc(-n2nc3c(=O)n(CCCC(=O)NC4CCC(C)CC4)nc(C)c3c2C)cc1 (centres undefined) | 0.68 | i | -3 | -10 | 1 | 4 | 4.1 | nt | 1.4
N#CC(=C1C=CC(=NO)C(Cl)=C1)c1ccccc1 | nt | i | nt | -2.0 | -5 | -7 | -6.2 | nt | -0.9
Cn1ncc(Cl)c1C(=O)Nc1ccc(Cl)cn1 | 0.7 | nt | nt | nt | nt | nt | nt | 18% | 4.7
NC(=O)c1sc2nc3c(c(-c4cccs4)c2c1N)CCCCC3 | 0.78 | nt | -10 | nt | nt | nt | nt | ? | -1.9
Cc1oc(C(=O)O)cc1COc1cccc2ccccc12 | 0.64 | i | nt | 2.8 | -25 | -40 | -3.3 | nt | -3.8
Cc1cc(C(F)F)nn1CC(=O)NCc1ccco1 | 0.7 | i | -4 | -25 | 2 | 5 | -0.8 | 8% | -2.9
Cn1c(=O)c2c(nc(N3CCN(c4ccc([N+](=O)[O-])cc4)CC3)n2C)n(C)c1=O | 0.69 | i | -49 | -2.6 | 8 | 8 | 0.6 | 19% | 3.8
Cc1cc(C(=O)CN2C(=O)c3ccccc3S2(=O)=O)c(C)n1CC1CCCO1 (centres undefined) | 0.7 | nt | nt | nt | nt | nt | nt | 51µM* | 1.4
CC(=O)c1cccc(NC(=O)c2cc(C(C)C)on2)c1 | 0.79 | i | -9 | -3.0 | -2 | -2 | -4.8 | -7% | 2.0
CC1CCc2c(C(=O)N3CCN(S(=O)(=O)c4cccs4)CC3)csc2C1 (centres undefined) | 0.69 | nt | -18 | nt | nt | nt | nt | 7% | 3.7
Cc1nn(-c2ccc(F)cc2F)c2c1-c1nc(N3CCCC3)ncc1CC2 | 0.7 | nt | -43 | nt | nt | nt | nt | -73% | 6.3
CC(C)CNS(=O)(=O)c1cc2c3c(c1)CCC(=O)N3CCC2 | 0.7 | i | -3 | -4.3 | 3 | -1 | -4.0 | 2% | -1.9
COc1cccc(CNC(=O)c2ccc(C(=O)NCc3cccc(OC)c3)cc2)c1 | 0.73 | i | -4 | -1.1 | 5 | 7 | -1.5 | nt | 0.5
CCC(=O)N(CC)C1=C(O)c2ccccc2C(=O)C1=O | 0.61 | i | 9 | 13 | 2 | 8 | -6.3 | 18% | -2.7
C[C@@H]1c2ccccc2N2C[C@H](Cc3ccc(C(=O)c4ccccc4)cc3)C[C@@H]12 | nt | i | nt | 3.9 | -3 | -1 | -0.1 | nt | -2.0
Cc1ccc(C)c(NC(=O)CN(C)C(=O)[C@@H](NC(=O)c2ccc(C(C)(C)C)cc2)C(C)C)c1 | 0.66 | nt | -2 | nt | nt | nt | nt | nt | -1.3
COc1cccc(N(CC(=O)NC(C)(C)C)C(=O)C2CSC(=O)C2)c1 (centres undefined) | 0.73 | i | -5 | -4.9 | 4 | 4 | -6.4 | -6% | -4.8
CCCCN(C(=O)CC1OC(=O)c2ccccc21)c1c(N)n(CCCC)c(=O)[nH]c1=O (centres undefined) | 0.64 | i | -3 | -0.3 | 23 | 12 | -1.0 | -5% | -3.0
C[C@@H]1CN([C@@H](C)CO)C(=O)c2cc(NS(C)(=O)=O)ccc2O[C@@H](C)CCCCO[C@H]1CN(C)C(=O)C1CCCCC1 | nt | i | nt | -2.6 | 0 | 10 | 0.2 | nt | nt
CCN1C(=O)c2cccc3c(S(=O)(=O)N4CCCC4C(=O)O)ccc1c23 (centres undefined) | 0.67 | i | -20 | -0.9 | -3 | 3 | 0.4 | -2% | 2.4
c1ccc(CN2CCN(C3=Nc4cccc5cccc3c45)CC2)cc1 | 0.65 | nt | nt | nt | nt | nt | nt | -9% | 1.6
CC(C)(C)OC(=O)N1CCC(Cc2cc(-c3ccc(Cl)cc3)no2)(C(=O)O)CC1 | 0.69 | i | nt | 1.8 | -27 | -27 | -9.8 | nt | -1.0
COC(=S)N/C(=N\S(=O)(=O)c1ccc(Cl)cc1)c1ccccc1 | nt | i | -1 | -0.1 | 5 | 7 | -1.8 | nt | 1.5
O=S(=O)(NCCC1=CCCCC1)c1ccc(F)cc1 | 0.7 | i | -8 | -2.1 | -25 | -29 | -7.2 | -4% | 0.7
Cc1ccc(-c2ccc3c(c2)O[C@@H](CN(C)Cc2ccccn2)[C@H](C)CN([C@@H](C)CO)S3(=O)=O)cc1 | nt | i | nt | 5.6 | -17 | -42 | 2.0 | nt | nt
CC(=O)N1CCN(C(=S)c2ccc([N+](=O)[O-])cc2)CC1 | 0.73 | nt | -4 | nt | nt | nt | nt | -9% | -1.0
CCCC(=O)N1CCN(c2ccc(NC(=O)c3ccccc3)cc2)CC1 | 0.72 | nt | -2 | nt | nt | nt | nt | 24% | 1.3
NS(=O)(=O)c1cc(C(=O)OCC(=O)N2CCc3ccccc3C2)ccc1Cl | 0.69 | i | -2 | -1.8 | -1 | -3 | -1.5 | -14% | 2.0
Cc1c(N=C/C=C/c2ccccc2)cnn1C | 0.71 | nt | 22 | nt | nt | nt | nt | 1% | 1.3
COc1ccccc1S(=O)(=O)N1CC[C@H]2[C@@H](CO)N(C)c3ccc(C#Cc4ccccc4)cc3[C@H]21 | nt | i | nt | -3.3 | -3 | 18 | 2.7 | nt | nt
CCOc1ccccc1C1CC(=O)Nc2cc3c(cc21)OCO3 (centres undefined) | 0.65 | nt | 2 | nt | nt | nt | nt | 13% | -3.0
CCCCC[C@H](C)N1C[C@H](COCc2ccccc2)Oc2cc(N3CCC[C@H]3CO)ccc2S1(=O)=O | nt | i | nt | -1.4 | -1 | 1 | -0.5 | nt | -1.0
COCCC(=O)Nc1ccc2c(c1)CN(C(=O)c1ccc(CSC)o1)CC2 | 0.73 | i | nt | -11 | 5 | -2 | 0.2 | 3% | -1.6
OCC[C@@H]1C[C@H](O)[C@@H](O)[C@@]2(CCc3ccccc3O2)O1 | nt | i | 1 | -31 | 4 | 5 | -1.8 | nt | 3.4
O=C(CC1C[C@H](C(=O)N2CCOCC2)[C@@]2(CCC3CCCC3)c3[nH]c4ccccc4c3CCN2C1=O)NCc1cccc(C(F)(F)F)c1 (some centres undefined) | 0.72 | i | nt | -5.8 | 18 | 14 | 4.5 | -2% | 1.5
COC(=O)C(C)Sc1nc2c(c(-c3ccc(OC)cc3)c1C#N)-c1ccccc1C2=O (centres undefined) | 0.76 | nt | -5 | nt | nt | nt | nt | 4% | 1.0
O=C(C[C@@H]1CC[C@H]2[C@@H](COC[C@H](O)CN2C(=O)c2ccccc2F)O1)NCc1ccc(F)cc1 | nt | i | nt | -2.6 | 1 | -4 | 3.6 | nt | nt
CCn1c(=O)[nH]c(=O)c2c(N)c(C(=O)c3ccccc3OC)sc21 | 0.72 | nt | 0 | nt | nt | nt | nt | nt | -0.1
c1ccc(C2CC(c3cccs3)Nc3nnnn32)cc1 (centres undefined) | 0.71 | i | -3 | -2.3 | -2 | -5 | 0.5 | -12% | 1.2
C[C@@H]1CN([C@H](C)CO)C(=O)c2cc(NS(=O)(=O)c3ccc(F)cc3)ccc2O[C@@H]1CN(C)S(=O)(=O)c1cccs1 | nt | i | nt | -1.9 | 0 | 0 | 2.2 | nt | nt
CCOCCCNC(=O)C1CC(=O)N(CCc2ccc(C)cc2)C1 (centres undefined) | 0.68 | i | 13 | -3.0 | 2 | 5 | -0.9 | -1% | 2.4
CCOC(=O)CNc1nc(Oc2ccc(=O)n(C)n2)nc(N(CC)CC)n1 | 0.68 | i | -4 | 0.4 | -3 | 3 | -2.4 | 0% | -0.1
O=C(CNC(=O)c1ccccc1)OCc1cccc([N+](=O)[O-])c1 | 0.72 | nt | -2 | nt | nt | nt | nt | 3% | 6.0
C[C@H]1CN([C@@H](C)CO)C(=O)c2cc(-c3cncnc3)cnc2O[C@@H]1CN(C)CC1CCOCC1 | nt | i | nt | -4.3 | 3 | 9 | -2.8 | nt | nt
COc1cc(CC(=O)NNC(=O)c2cccs2)cc(OC)c1OC | 0.65 | i | -5 | -7.5 | 10 | 16 | -0.4 | nt | 3.1
CCc1ccc(CNCc2cccs2)cc1 | 0.67 | i | -1 | 2.9 | 3 | -2 | 1.4 | 9% | 0.3
C=CCn1c(=O)c2ccccc2n2c(SCC(=O)c3ccccc3)nnc12 | 0.69 | nt | -3 | nt | nt | nt | nt | ? | -0.9

Whole records, looked up by structure.
O=C(CNC(=O)c1ccccc1)OCc1cccc([N+](=O)[O-])c1 across the screens: Ecoli growth: 0.72; FGF22 binding: nt; ALR inh: -2; MLL AF4-AF9 inh: nt; Ecoli rRNA inh: nt; Ecoli rRNA inh OD600: nt; Ecoli rRNA inh RFP: nt; Vif TR-FRET: 3%; HNF4A DNA FP: 6.0
C=CCn1c(=O)c2ccccc2n2c(SCC(=O)c3ccccc3)nnc12 across the screens: Ecoli growth: 0.69; FGF22 binding: nt; ALR inh: -3; MLL AF4-AF9 inh: nt; Ecoli rRNA inh: nt; Ecoli rRNA inh OD600: nt; Ecoli rRNA inh RFP: nt; Vif TR-FRET: ?; HNF4A DNA FP: -0.9

Remaining list, next part
structure | Ecoli growth | FGF22 binding | ALR inh | MLL AF4-AF9 inh | Ecoli rRNA inh | Ecoli rRNA inh OD600 | Ecoli rRNA inh RFP | Vif TR-FRET | HNF4A DNA FP
O=C(NC(=S)NC1CCS(=O)(=O)C1)c1ccccc1Br (centres undefined) | 0.71 | i | -7 | -0.2 | 16 | 6 | 0.8 | nt | 0.9
C[C@@H]1CCCCO[C@H](CN(C)C(=O)NC2CCCCC2)[C@H](C)CN([C@@H](C)CO)C(=O)c2cc(NS(=O)(=O)c3ccccc3)ccc2O1 | nt | i | nt | 1.6 | -4 | -7 | 0.2 | nt | nt
COc1cccc(NC(=O)CN2CCc3ccccc3C2)c1 | 0.69 | i | -2 | -1.9 | -2 | -3 | -1.0 | -2% | 0.0
CON(C)c1nc(Oc2ccc(=O)[nH]n2)nc(N(C)C)n1 | 0.68 | nt | -2 | nt | nt | nt | nt | 7% | 3.3
C=CCNc1nc(NCc2ccco2)nc(OCC)n1 | 0.78 | nt | 0 | nt | nt | nt | nt | -3% | -0.5
CCN1C(=O)C(=O)N(CC(=O)N2CCN(c3ccccc3)CC2)C1=O | 0.68 | i | 36 | -0.2 | 6 | 10 | -1.8 | -4% | -0.8
C[C@H](O)C#Cc1ccc([C@H]2[C@H]3CN(C(=O)c4ccncc4)CCCCN3[C@H]2CO)cc1 | nt | i | nt | 5.4 | 3 | 19 | 0.7 | nt | nt
O=C(CN1C(=O)C2C3C=CC(C3)C2C1=O)NCc1ccccc1 (centres undefined) | 0.74 | nt | -15 | nt | nt | nt | nt | 2% | -5.2
CCC1CCCCN1CCCNC(=O)Cn1ncn2nc(-c3ccc(OC)cc3)cc2c1=O (centres undefined) | 0.67 | i | 0 | 1.7 | 6 | 17 | 6.4 | -3% | -1.6
CCCNC(=O)c1cccc(C(F)(F)F)c1 | 0.62 | i | 3 | 2.2 | 11 | 11 | -4.6 | 0% | 0.7

Only part of the results is shown; the hit share may differ from the screen's.
